BJeLR lethal = BJeLR cell viability loss. AID 1554. BJeLR (HRASV12) viability, CellTiter-Glo ATP luminescence, 48 h; reference of the scale not given here. actives 0.17% (n = 300,000). inhibition, % (concentration not given with the values);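 active = replicate mean above 50%; inconclusive = above 50% but judged a plate artefact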;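 note: 50 nL library stock added to about 25 µL; numbers are from one replicate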
Sa ugtP lethal = kills S. aureus RN4220 lacking UgtP; S. aureus RN4220 ugtP deletion, OD600 growth, 16 h; some inactives read as strong as hits; growth inhibition, % (test concentration not listed); actives 0.54% (n = 330,000);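 active = z-score under -3 and OD600 up to 0.15 on both plates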;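 note: plate controls were untreated wells for no effect and antibiotic for full effect; wells of about 80 µL received 100 nL stock; the first replicate is given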
Autofluor counter = counter-screen for toxin protease inhibitors: compound fluorescence. compound autofluorescence counterscreen, microsphere flow cytometry; hits give high values. actives 3.1% (n = 360,000). AID 624483. fluorescence intensity (test concentration not listed);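 active = at least 3 SD above the mean of all compounds, about 16000 in these data; inconclusive = too few beads counted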;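 note: 100 nL of 1 mM stock went into each well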
RN4220 kill = kills Staphylococcus aureus RN4220; S. aureus RN4220 growth, OD600, 16 h; inhibition, % (concentration not given with the values); actives 0.33% (n = 330,000); AID 1259311;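 active = z-score of -3 or lower and OD600 up to 0.18 on both plates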;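 note: plate controls were untreated cells for no effect and reference antibiotic for full effect; stock transfer was 100 nL into about 80 µL; one replicate is shown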
Mtb hypoxia rep = Mtb hypoxia fluorescent reporter inhibition; M. tuberculosis hypoxia-regulated fluorescent reporter, fluorescence; fluorescence inhibition, % (test concentration not listed); actives 0.1% (n = 300,000);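 active = 35 to 45% if threefold the growth effect, above 45% if 1.5-fold the growth effect; inactive = the rest, general growth blockers included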;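 note: wells of about 50 µL received 100 nL stock; 0% = vehicle wells and 100% = reference inhibitor wells; whole bacteria with a GFP reporter of the hypoxia response; strong numbers were not always called active; many hits fall short of the cut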
PrP 5UTR inh = suppresses PrP 5' UTR mRNA reporter expression | actives 0.35% (n = 340,000) | AID 488862 | inhibition, % (test concentration not listed) | cell-based PrP 5' UTR mRNA reporter, plate reader;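 active = every replicate at 50% or more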;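 note: 0 = median of the neutral control wells; tested in H4 reporter cells; numbers are from one replicate; inactives centre near -14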
Mtb hypoxia rep growth = recorded beside Mtb hypoxia rep, whose call it bears; growth inhibition, %; measured here: M. tuberculosis growth (absorbance);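 0% = vehicle and 100% = reference antibiotic; read after six days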
* = called active by the depositor; ? = inconclusive; / = not tested or not shown; & = joins results of further samples.

molecule	BJeLR lethal	Sa ugtP lethal	Autofluor counter	RN4220 kill	Mtb hypoxia rep	Mtb hypoxia rep growth	PrP 5UTR inh
O=C(Nc1nc(-c2nc3ccccc3s2)cs1)C1CC1	3	21	4333	1.0	-1	2	-50
CC[C@H](C)[C@@H](CN[C@H](C)CNC)NCCC(c1ccccc1)c1ccccc1	0	/	4126	/	/	/	12
CCNC(=S)N/N=C(\C)c1ccco1	13	/	3463	/	/	/	-4
O=[N+]([O-])c1ccccc1-n1cnc2ccccc21	2	7	3238	5.7	4	3	-20
COc1ccc(Nc2nc3ccccc3nc2C)cc1	-6	-3	13334	5.6	5	2	-15
COc1ccc(N2CCN(S(=O)(=O)c3cc4c(cc3C)N(C(C)=O)CCO4)CC2)cc1	-5	7	5095	3.9	2	2	-1
CCNC(=S)N/N=C/c1c(C)nn(-c2cccc(Cl)c2)c1Cl	-3	/	2843	/	/	/	-13
CS(=O)c1ccccc1-c1nc(-c2ccc([N+](=O)[O-])cc2)no1 (stereo unspecified)	/	-7	5203	4.7	-11	-6	0
Cc1n(CC(=O)c2ccc(F)cc2)c2ccccc2[n+]1C	-5	2	2036	1.2	11	2	-17
O=C(c1cccc(Br)c1)N1CCN(C(=O)N2CCOCC2)CC1	0	4	4778	5.6	/	/	-4
CSCCC(NS(=O)(=O)c1ccccc1)C(=O)Nc1nccs1 (stereo unspecified)	/	-1	?	4.4	5	-1	-4
Cc1nc(NCCN2CCOCC2)c2nnn(Cc3ccccc3Cl)c2n1	3	1	9888	6.9	6	11	-40
COCCSc1nnc(NC(=O)CS(=O)(=O)c2ccccc2)s1	17	6	5792	4.5	3	16	-8
COc1ccc(CCNc2cc(C)nc3c(-c4ccccc4)c(C)nn23)cc1OC	4	6	2128	0.1	8	34	-31
CCn1c(-c2cc(-c3cc(OC)ccc3OC)nc3ccccc23)n[nH]c1=S	6	-3	9863	0.9	-3	13	/
CCC(=O)N1N=C(c2ccc(NS(=O)(=O)c3ccc(C)cc3)cc2)CC1c1ccco1 (stereo unspecified)	/	6	?	10.0	8	-2	-6
CCSc1nnc(NC(=O)c2nc(-c3ccccc3)n(-c3ccccc3)n2)s1	-3	7	3442	18	/	/	-8
CCN(CC)C(=O)C1CCC(C)(C(=O)O)C1(C)C (stereo unspecified)	1	5	3612	-1.8	/	/	-22
CCC(COC(=O)c1cc(OC)c(OC)c(OC)c1)(c1ccccc1)N(C)C (stereo unspecified)	-4&8	7&7&8	4200&5701	3.1&3.3&3.2	-3&0&1	-1&5&11	-35&-14&-17
OCCC1CN(Cc2cnn(-c3ccccc3Cl)c2)CCN1Cc1ccsc1 (stereo unspecified)	-17	-1	3258	-4.5	5	-4	-15
CCSc1nnc([C@@H](N)Cc2ccccc2)o1	-3	5	21095*	3.7	6	6	-16
COc1ccc(S(=O)(=O)NCC2CCC(C(=O)NCc3ccc(F)cc3)CC2)cc1 (stereo unspecified)	4	1	3906	1.5	4	1	-23
COc1ccccc1CNC(=O)CCNC(=O)Cn1cnc2ccccc2c1=O	10	2	2722	2.2	/	/	-32
O=C(NC(=S)NCc1ccccc1)c1cccc([N+](=O)[O-])c1	-8	5	2854	3.6	6	0	-53
COc1ccccc1CCNC(=O)CCn1nc(C)c2c(C)n(-c3ccccc3)nc2c1=O	-19	3	5180	1.3	9	3	-1
Cc1ccc(NC(=O)c2ccccc2OCc2c(C)noc2C)cc1S(=O)(=O)N(C)C	/	3	7676	2.8	0	4	-18
CCOC(=O)c1ccc(NC(=NS(=O)(=O)c2ccccc2C)c2ccccc2)cc1	/	-3	/	4.0	3	11	/
COc1cc(/C=N/n2c(C)nnc2C)cc(OC)c1OC	17	/	5381	/	/	/	-11
C=CCn1c(SCC(=O)NC2CCS(=O)(=O)C2)nc2sc(CC)cc2c1=O (stereo unspecified)	-14	-5	2879	0.5	/	/	-10
O=S(=O)(Oc1ccccc1)c1cccnc1	-7	-10	4397	-5.3	-9	10	-9

Remaining list, next part:
molecule	BJeLR lethal	Sa ugtP lethal	Autofluor counter	RN4220 kill	Mtb hypoxia rep	Mtb hypoxia rep growth	PrP 5UTR inh
COc1cccc(OC)c1C(=O)Nc1cccc(NC(=O)c2cccs2)c1	-20	6	3788	3.6	7	3	-13
CS(=O)(=O)Nc1ccccc1C(=O)Nc1cccc(Cl)c1	6	79	5367	81	7	9	-15
NC(=O)c1ccccc1NC(=O)CC12CC3CC(CC(C3)C1)C2	-4	9	4257	1.9	17	-1	-7
CNC(=S)NN=Cc1ccc(N2CCOCC2)s1	/	-3	/	1.9	14	27	/
O=C1c2cnc3nc(SCc4ccc(Cl)cc4)nn3c2CC2c3ccccc3CCN12 (stereo unspecified)	-3	-13	9715	2.1	7	6	1
CN(C)CCCN(C(=O)c1ccc(Cl)s1)c1nc2cc3c(cc2s1)OCO3	5	/	5375	/	/	/	-11
COc1ccc(C2C(C)C3(O)CC(C#N)(C(=O)N3)C2(C#N)C#N)cc1 (stereo unspecified)	-13	5	4710	2.5	9	14	-9
CC(=O)N(c1ccc(Cl)cc1)c1c[nH]c2ccccc12	5	-18	8748	-3.3	0	-7	6
Cc1cc(Cl)c(OCCCn2ccnc2)c(Br)c1	-9	6	2175	8.4	9	5	-16
O=C1C=CC(=Nc2ccc(F)cc2)O1	/	-2	3873	2.7	2	-4	-23
CCCNC1=CC(=O)CC(C)(C)C1	0	8	2506	5.2	6	-3	15
CCCCCCn1c(CN2CCCC(C)C2)nc2c1c(=O)n(C)c(=O)n2C (stereo unspecified)	-2	4	9171	1.7	2	-4	-15
CC1CN(CCS(=O)(=O)c2cc(Cl)ccc2Cl)CC(C)O1 (stereo unspecified)	-12	7	3622	1.9	16	15	-8
NC(=O)Oc1cccc(OC(N)=O)c1	1	8	4157	4.9	6	-4	/
Cc1ccccc1C(=O)Nc1ccc(S(=O)(=O)N2CC(C)OC(C)C2)cc1 (stereo unspecified)	-12	4	5238	-4.1	5	-5	-18
Cn1c(=O)c2c(ncn2CC(=O)NN=C/C=C/c2ccccc2[N+](=O)[O-])n(C)c1=O	/	6	/	1.9	-10	-13	/
CN(C)C(=O)c1cc(C(=O)c2c(F)cccc2F)c[nH]1	-3	1	3804	-2.2	-5	-8	68*
CC(=O)Nc1ccc(S(=O)(=O)N2CCNC(=O)CC2)cc1	13	6	9082	6.0	11	8	9
CCCc1cc(=O)[nH]c(SCC(=O)c2cc(C)n(C)c2C)n1	-1	-8	2861	-4.0	10	12	3
CCOC(=O)/C=C/c1ccc(C(F)(F)F)cc1S(=O)(=O)NC(C)(C)C	10	/	3783	/	/	/	-4
CN(CC(=O)NC1CC1)S(=O)(=O)c1ccc(F)cc1	/	10	3839	8.0	18	15	-29
CCOc1ccccc1N1CCN(C(=O)CCCc2nc3ccccc3s2)CC1	0	-1	2232	4.4	8	0	-34
CN(Cc1ccccc1)C(=O)c1ccc([N+](=O)[O-])o1	-7	-5	2058	1.2	/	/	-6
CC(C)CNC(=O)c1c(N)n(/N=C/c2ccccn2)c2nc3ccccc3nc12	9	/	2694	/	/	/	-11
COc1ccccc1CNC(=O)CNC(=O)N1CC(=O)Nc2ccccc21	-6	2	6001	0.0	2	-5	6
CC(C)c1nn2c(=O)cc(O)nc2s1	-2	4	2166	1.2	11	7	-27
CC(C)CN(C(=O)c1ccc(=O)n(C)n1)c1c(N)n(Cc2ccccc2)c(=O)[nH]c1=O	6	10	6194	2.5	8	-6	-25
O=C(O)CC1c2ccccc2CCN1S(=O)(=O)c1ccccc1 (stereo unspecified)	4	1	5914	7.4	12	1	/
CC1C(=O)Nc2ccc(S(=O)(=O)N3CCN(c4cccc(Cl)c4)CC3)cc2NC1=O (stereo unspecified)	9	-2	5352	0.9	-7	4	-9
COCCNC(=O)C(c1ccccc1C)N(C(=O)Cn1nnc2ccccc21)c1cccnc1 (stereo unspecified)	-18	-6	9681	1.1	0	1	-4

Reformatted: entries from further up
> COc1ccccc1CNC(=O)CNC(=O)N1CC(=O)Nc2ccccc21
  BJeLR lethal: -6	Sa ugtP lethal: 2	Autofluor counter: 6001	RN4220 kill: 0.0	Mtb hypoxia rep: 2	Mtb hypoxia rep growth: -5	PrP 5UTR inh: 6

> CC(C)c1nn2c(=O)cc(O)nc2s1
  BJeLR lethal: -2	Sa ugtP lethal: 4	Autofluor counter: 2166	RN4220 kill: 1.2	Mtb hypoxia rep: 11	Mtb hypoxia rep growth: 7	PrP 5UTR inh: -27

Carrying on.
molecule	BJeLR lethal	Sa ugtP lethal	Autofluor counter	RN4220 kill	Mtb hypoxia rep	Mtb hypoxia rep growth	PrP 5UTR inh
CCC(=O)Nc1c(C)cc(C)cc1Cl	3	-7	3163	-0.3	1	11	-1
COc1cccc(NC(=O)N(Cc2cc3cc(C)cc(C)c3[nH]c2=O)CC2COCCO2)c1 (stereo unspecified)	9	7	3913	0.3	/	/	-31
CCN(CC)c1ccc(-c2nn3c(-c4n[nH]c5c4CCC5)nnc3s2)cc1	1	-7	3172	12	/	/	74*
COC(=O)Oc1ccc(/C=C/C(=O)OC(C)C)cc1OC(=O)OC	-8	2	2352	4.7	5	3	-46
O=C(CCl)NN1C(=O)NC2(CCCCC2)C1=O	3	8	4316	2.0	10	13	-28
c1ccc(-n2nnnc2N2CCOCC2)cc1	/	6	2706	-0.6	/	/	-15
COc1ccc(C(c2c(C)n(C)n(-c3ccccc3)c2=O)c2c(C)n(C)n(-c3ccccc3)c2=O)cc1O	/	10	/	5.0	12	5	/
Cc1c(Cl)cnc(NC(=O)CSc2nnc(C)n2Cc2ccccc2)c1Cl	/	-3	3292	-16	10	9	-13
Cc1cc(C)c2c(n1)nn1c(N3CCN(Cc4ccccc4)CC3)cc(C)nc21	/	10	6669	0.8	1	14	5
Cc1ccccc1C(=O)c1cccn1CC(=O)NCC(C)c1ccccc1 (stereo unspecified)	-3	6	5861	2.1	5	1	-9
COc1cc(CC(=O)OCC(=O)N2CCCCC2)cc(OC)c1OC	2	-1	3608	2.0	15	0	7
Cc1cc(C(=O)Nc2nnc(C3CC3)s2)c(C)s1	/	-1	5446	14	6	11	-53
CC[C@]1(C(=O)OC)[C@H]2C(=O)N(C)C(=O)[C@H]2[C@H]2CN=C(SCc3ccccc3)N21	/	0	3785	2.3	3	9	-16
Cc1ccccc1N=C1NC(=O)CS1	1	0	2799	2.4	4	13	-4
COc1ccccc1CCC(=O)Nc1ccc(S(=O)(=O)Nc2cc(C)nc(C)n2)cc1	-10	8	?	4.1	-5	-10	-4
CCOC(=O)c1nnc(-c2ccccc2)o1	-5	11	6641	4.6	5	1	4
COc1ccc(OC)c(-c2csc(NC(=O)CSc3ccc([N+](=O)[O-])cc3)n2)c1	-7	-29	1924	2.4	10	13	-24
CN(C)c1ccc(CNn2cnnc2SCC(=O)NC(C)(C)C)cc1	-1	4	4255	7.5	-7	-7	-23
CC(=O)c1nc2ccccc2n1Cc1ccccc1	9	-1	4136	1.1	6	5	-30
COc1cccc(C(=O)/C=C/Nc2cc(C)ccc2O)c1	-8	-18	23605*	9.4	-2	7	-66
CC1Cc2cc(/C(O)=C3/C(=O)C(=O)N(CC4CCCO4)C3c3ccco3)ccc2O1 (stereo unspecified)	-3	7	2140	0.0	/	/	9
Cc1cccc(NS(=O)(=O)c2cnc[nH]2)c1	7	5	2521	2.6	3	4	-18
CC(=O)N1CCc2cc(S(=O)(=O)NCCC(=O)N3CCN(Cc4ccccc4)CC3)ccc21	/	-3	?	-0.8	1	5	-5
COCCN(C(=O)COC(=O)COc1ccc2ccccc2c1)c1c(N)n(Cc2ccccc2)c(=O)[nH]c1=O	/	-5	4112	16	-1	5	-14
COc1cccc(C(C#N)N2CCCCC2)c1O (stereo unspecified)	-8	9	3300	4.5	/	/	7
COC(=O)C(NC(C)=O)(Nc1nc2ccc(C)cc2s1)C(F)(F)F (stereo unspecified)	17	1	4809	-1.5	10	15	-8
Cc1ccccc1NC(=O)CSc1nc(COc2ccccc2)nc2ccccc12	-7	0	10410	4.8	3	1	-24
CCN1C(=O)[C@@H]2[C@H](C1=O)[C@@H]1C[C@H]3C(=O)N(CC)C(=O)[C@H]3[C@@H]3C1=C(C(=O)N1C(=O)OC(=NCC4CC4)[C@]31C)[C@@H]2C	-3	/	3820	/	/	/	-18
CCOc1ccc(S(=O)(=O)N2CCN(c3ccc(OC)cc3)CC2)c2cccnc12	2	8	4364	-1.6	/	/	-9

Source: PubChem
